Assay outcomes deposited in PubChem by National Center for Advancing Translational Sciences (NCATS).
Menin-MLL FL inh: displaces fluorescein MLL peptide from human menin. Fluorescence polarization, fluorescein-MLL peptide displacement from menin. FP activity change, % at 61.4 µM. 290,000 tested, under 10 active; inconclusive = falling polarisation curve, or a change in total fluorescence; inactive = total fluorescence flat and polarisation flat or rising; no compound was filed as active; the % refers to the polarisation; negative = inhibition;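 note: % of control where 0% means no effect; inhibitors lower the polarisation; unlabelled MLL peptide was the positive control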
Sfp PPTase inh: Sfp phosphopantetheinyl transferase inhibition | 310,000 compounds, 3.5% hits | Q9F4F7 | Biochemical Sfp PPTase activity, qHTS | Potency, µM, without a hit: max response, negative = inhibition, hits mostly inhibitors; active = well fitted inhibition curve with a large enough effect; inconclusive = small, poorly fitted or top-dose-only effect, or another doubt; inactive = no such curve, though single readings can be large or run the other way;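 note: the enzyme is Sfp with the accession as filed and its product quenches rhodamine fluorescence; potency is the fitted concentration of half-maximal effect; 0% = enzyme reaction without inhibitor and -100% = no enzyme wells; top concentration of the series not given in the record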
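Buffer: 50 mM Hepes-Na pH 7.6, 10 mM MgCl2, 0.01% Nonidet P-40, 0.01% BSA. Enzyme 15 nM, pre-exposed to compound 15 min; substrates then added and fluorescence change tracked over 30 min.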
TRPV1 potentiator: human TRPV1 potentiation. TRPV1-expressing cells, Fluo-8 calcium influx, capsaicin EC20 potentiation; host cell line not named in the record; control for the full effect not named in the record. potentiation, % at 8.33 µM. 320,000 compounds, 0.02% hits. AID 540277; active means potentiation above 80%; inconclusive means 30% to 80%; inactive means below 30%; note: 0% is about no effect
Target sequence (Q8NER1 whole entry, looked up): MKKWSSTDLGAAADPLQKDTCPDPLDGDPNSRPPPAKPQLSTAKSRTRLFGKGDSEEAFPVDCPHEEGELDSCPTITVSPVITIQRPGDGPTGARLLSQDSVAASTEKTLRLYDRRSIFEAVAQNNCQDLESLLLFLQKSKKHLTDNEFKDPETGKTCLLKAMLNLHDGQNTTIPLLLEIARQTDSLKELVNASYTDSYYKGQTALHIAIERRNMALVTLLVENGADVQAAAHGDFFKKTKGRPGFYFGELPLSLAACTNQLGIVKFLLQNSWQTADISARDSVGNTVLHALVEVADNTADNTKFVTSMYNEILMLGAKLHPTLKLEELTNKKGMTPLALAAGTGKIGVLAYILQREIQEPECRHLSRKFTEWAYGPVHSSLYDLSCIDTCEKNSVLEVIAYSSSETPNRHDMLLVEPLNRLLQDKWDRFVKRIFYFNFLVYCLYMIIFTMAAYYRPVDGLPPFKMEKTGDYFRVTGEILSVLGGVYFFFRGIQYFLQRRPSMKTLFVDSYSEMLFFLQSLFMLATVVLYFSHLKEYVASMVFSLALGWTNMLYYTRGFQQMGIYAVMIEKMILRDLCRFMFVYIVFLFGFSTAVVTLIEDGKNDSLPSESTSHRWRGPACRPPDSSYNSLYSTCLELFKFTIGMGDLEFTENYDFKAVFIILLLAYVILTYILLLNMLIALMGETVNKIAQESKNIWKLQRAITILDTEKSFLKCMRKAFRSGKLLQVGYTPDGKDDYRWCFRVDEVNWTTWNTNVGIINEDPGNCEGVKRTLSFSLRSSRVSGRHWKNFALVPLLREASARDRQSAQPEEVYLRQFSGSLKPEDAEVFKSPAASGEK
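TRPV1-expressing cells were cultured overnight at 35.5C and loaded with Fluo-8 calcium dye for 40 to 90 min at room temperature. After a 10 s baseline, compound was added and calcium influx was read kinetically for 3 min (ex 480/em 520 nm).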
TRPML1 ag: human mucolipin-1 channel agonism | activation, % (no concentration beside the values) | TRPML1-expressing cells, Ca2+ dye fluorescence, FDSS; host cell line not named in the record; reference of the full effect not given here | 410,000 compounds, 0.12% hits | Q9GZU1; in the data active = activation above about 50%; inconclusive = about 30% to 50%; inactive = below about 30%; note: 0% is about no effect; the text of the record puts the active cut at 80%
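Tetracycline-induced TRPML1-DL cells are seeded and incubated overnight before loading with a no-wash Ca2+ dye and quencher. Agonist activity is taken from the 110 s fluorescence read following compound pin-transfer on an FDSS, before EC80 54-4 challenge.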
PINK1 expr mod: changes PINK1 expression; Potency, µM (doses to about 76.6 µM), inactives show top-dose activation (PINK1 increase), most hits filed as activators; 410,000 compounds, 0.2% hits; PINK1 immunofluorescence, high-content cytometry, 24 h; active = well fitted activation curve with a large enough effect; inconclusive = small, poorly fitted or top-dose-only effect; inactive = flat fitted curve, though single readings scatter; cell line not stated here;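 note: potency is the fitted concentration of half-maximal effect; % of control where 0% means no effect; nearly all actives have a fitted effect of over 65% in size; a mitochondrial uncoupler was the plate control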
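Decision-based qHTS: stable cells, 24 h exposure to five compound concentrations, CCCP as control. Fixed cells stained for PINK1 plus nuclear, mitochondrial and cell markers, cytometer read.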
ClpP mod: qHTS Assay for Activators of ClpP. AID 651965, 2013. Potency, µM (highest dose often 57.5 µM), without a hit: at the top dose activity change, negative = active. purified B. subtilis ClpP, FRET peptide cleavage, 20 min. ATP-dependent Clp protease proteolytic subunit (Bacillus subtilis (strain 168)), P80244. 340,000 compounds, 1.9% hits; active = well fitted falling curve with a large enough effect; inconclusive = small, poorly fitted or top-dose-only effect; inactive = no such curve, though single readings can be large or run the other way; note: potency is the fitted concentration of half-maximal effect; the source files actives as falling curves though it sought activators and does not explain the sign; nearly all actives have a fitted effect of over 65% in size; many hits overshoot -100%
Target sequence (P80244 whole entry, looked up): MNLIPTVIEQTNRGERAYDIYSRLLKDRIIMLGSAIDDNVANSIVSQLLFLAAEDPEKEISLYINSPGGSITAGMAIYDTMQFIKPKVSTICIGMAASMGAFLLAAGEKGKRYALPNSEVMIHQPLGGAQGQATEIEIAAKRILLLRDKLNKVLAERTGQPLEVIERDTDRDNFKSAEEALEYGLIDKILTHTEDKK
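Purified B. subtilis ClpP, 10 microg/mL final in Tris/HCl pH8 with KCl, BSA, glycerol and Tween-20, cleaved an Abz/nitrotyrosine-quenched decapeptide. Fluorescence (ex 320, em 430) was read at 0 and 20 min at room temperature. Delta was normalized to 5.8 microM ADEP and DMSO/no-enzyme controls.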
TRPML1 inh: inhibitors of human TRPML1 channel; TRPML1-inducible cells, Ca2+ dye fluorescence, FDSS; active compounds read low; inhibition of EC80 agonist-evoked calcium signal; 390,000 compounds, 0.02% hits; activity change, negative = inhibition, % (no concentration beside the values); in the data active means activity change below about -50%; inconclusive means about -30% to -50%; inactive means above about -30%;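 note: stimulus is agonist 54-4 at its EC80 concentration; % is set by controls: 0 for no effect and ±100 for the full control effect; compound concentration not given in the record; the text of the record puts the active cut at -80%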
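TRPML1-DL cells, Tet-induced overnight (~16 h, 37 °C) at 1,500 cells/well, were loaded with Ca8 no-wash dye plus quencher for 45-90 min at room temperature. Compounds were pinned during FDSS kinetic reading; agonist 54-4 at EC80 (4 uM final) then added.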
An asterisk follows results filed as active; [ ] = dose if it differs, or a comment. Random draw from the library (roughly 4.4% active in at least one column).

What do the screens show for `COc1ccc(NC(=O)c2sc3nc[nH]c(=O)c3c2C)cc1OC`?
TRPML1 ag: -0.4; PINK1 expr mod: 5.0%; ClpP mod: 1.8%; TRPML1 inh: -2

How did CCOc1cc(C(=S)N2CCOCC2)ccc1OC do in these assays?
Menin-MLL FL inh: -1.4; Sfp PPTase inh: -30%; TRPV1 potentiator: -1; TRPML1 ag: 0.2; PINK1 expr mod: 3.3%[38.3 µM]; ClpP mod: -0.7%; TRPML1 inh: -15

What do the screens show for `CC(=O)c1c(C)[nH]c(C(=O)COC(=O)c2c(C)noc2C)c1C`?
TRPV1 potentiator: -2; TRPML1 ag: 0.3; PINK1 expr mod: 7.2%; ClpP mod: -2.1%; TRPML1 inh: -4

What do the screens show for `COc1cccc(Oc2nc3ncn(Cc4ccccc4)c3c(=O)n2C)c1`?
Menin-MLL FL inh: 2.0; Sfp PPTase inh: 16%; TRPV1 potentiator: 4; TRPML1 ag: -1.0; PINK1 expr mod: 17%; ClpP mod: -0.3%; TRPML1 inh: 0

What do the screens show for `O=C(c1ccncc1)N1CCC2(CCN(Cc3cc(C(F)(F)F)cc(C(F)(F)F)c3)CC2)CC1`?
Menin-MLL FL inh: 0.7; Sfp PPTase inh: 8%; PINK1 expr mod: 0.5%

What do the screens show for `CCc1ccc(NC(=O)CSc2ccc3nnc(CCNS(=O)(=O)c4ccc(OC)cc4)n3n2)cc1`?
TRPML1 ag: -0.8; PINK1 expr mod: -0.5%; ClpP mod: -3.0%; TRPML1 inh: -14

How did O=C(Nc1n[nH]c(=S)s1)c1ccco1 do in these assays?
Menin-MLL FL inh: -0.1; Sfp PPTase inh: 56µM*; TRPV1 potentiator: -10; TRPML1 ag: -0.6; PINK1 expr mod: -0.5%; ClpP mod: -0.1%; TRPML1 inh: 7

What do the screens show for `CCc1nc(N2CCCC(C)C2)c2oc3ccccc3c2n1` (configuration not stated)?
Menin-MLL FL inh: -1.1; Sfp PPTase inh: 45µM*; TRPV1 potentiator: -3; TRPML1 ag: 5.0; PINK1 expr mod: inconclusive; ClpP mod: inconclusive; TRPML1 inh: 13

Results for CC(C)C(=O)NC(=S)Nc1ccc(S(=O)(=O)N(C)Cc2ccccc2)cc1 ?
Menin-MLL FL inh: 3.8; Sfp PPTase inh: 9%; TRPV1 potentiator: -11; TRPML1 ag: 1.6; PINK1 expr mod: 1.7%; ClpP mod: 0.4%; TRPML1 inh: 8

What do the screens show for `CCN1CCN(S(=O)(=O)c2ccc(Cl)c(C(=O)N(C)Cc3cccs3)c2)CC1`?
TRPV1 potentiator: -3; TRPML1 ag: 0.0; PINK1 expr mod: 0.6%; ClpP mod: -0.6%; TRPML1 inh: -8

How did Cc1ccc(OCC(=O)N(Cc2ccccc2)c2c(N)n(Cc3ccccc3)c(=O)[nH]c2=O)c(C)c1 do in these assays?
TRPV1 potentiator: 6; TRPML1 ag: 0.5; PINK1 expr mod: 2.7%; TRPML1 inh: 4

What do the screens show for `COc1ccc(NC(=S)NNC(=O)c2ccco2)c(OC)c1`?
TRPML1 ag: 0.5; PINK1 expr mod: -0.1%; ClpP mod: -2.1%; TRPML1 inh: -2

Results for COC(=O)c1c(C)cc(OC(C)=O)c(C)c1OC(C)=O ?
Menin-MLL FL inh: 2.9; Sfp PPTase inh: 14%; TRPV1 potentiator: 5; TRPML1 ag: 0.0; PINK1 expr mod: 1.1%; ClpP mod: -1.8%; TRPML1 inh: 10

Results for CCc1cccc(C)c1Nc1c(-c2ccc(SC)cc2)nc2sccn12 ?
TRPML1 ag: 1.9; PINK1 expr mod: 1.1%; ClpP mod: -3.8%; TRPML1 inh: 30

Results for Cc1cccc(NC(=S)NCCN2CCOCC2)c1C ?
Menin-MLL FL inh: 2.8; Sfp PPTase inh: -3%; TRPV1 potentiator: 8; TRPML1 ag: 0.5; PINK1 expr mod: 0.4%; ClpP mod: 0.8%; TRPML1 inh: 10

Results for COc1ccccc1CNC(=O)c1ccc(OCc2c(C)noc2C)c(OC)c1 ?
Menin-MLL FL inh: 0.2; Sfp PPTase inh: 12%; TRPV1 potentiator: -2; TRPML1 ag: 0.3; PINK1 expr mod: -1.8%; ClpP mod: -1.2%; TRPML1 inh: 0

Results for O=C(NCc1cccc(Cl)c1)c1ccc2c(c1)OCO2 ?
Menin-MLL FL inh: 1.1; Sfp PPTase inh: 16%; TRPV1 potentiator: -8; TRPML1 ag: 0.5; PINK1 expr mod: 0.6%[38.3 µM]; ClpP mod: -9.0%; TRPML1 inh: -13

How did Cc1cc(C(=O)NCc2cccc(Br)c2)c2c(C)nn(-c3ccccc3)c2n1 do in these assays?
TRPML1 ag: -0.4; PINK1 expr mod: 3.9%; ClpP mod: 60%; TRPML1 inh: 25

How did Cc1ccc(Nc2nc(OC(C(F)(F)F)C(F)(F)F)nc(N3CCOCC3)n2)cc1 do in these assays?
Menin-MLL FL inh: -5.2; Sfp PPTase inh: 32%[activator]; TRPV1 potentiator: -8; TRPML1 ag: 1.1; PINK1 expr mod: 11%; ClpP mod: 8.9%; TRPML1 inh: -2

How did N#CCC(=O)Nc1sc2c(c1C(N)=O)CCCC2 do in these assays?
Menin-MLL FL inh: 5.1; Sfp PPTase inh: 6%; TRPV1 potentiator: 25; TRPML1 ag: -0.7; PINK1 expr mod: 0.7%; ClpP mod: -0.8%; TRPML1 inh: 16

Results for O=C(COC(=O)c1ccc(O)cc1)Nc1ccc2[nH]c(=O)[nH]c2c1 ?
TRPV1 potentiator: 19; TRPML1 ag: 0.2; PINK1 expr mod: -0.5%; ClpP mod: -1.3%; TRPML1 inh: 5

Results for Cc1ccccc1NS(=O)(=O)c1cc(C(=O)Nc2cccc([N+](=O)[O-])c2)ccc1C ?
Menin-MLL FL inh: -0.2; Sfp PPTase inh: inconclusive; TRPV1 potentiator: 0; TRPML1 ag: 2.3; PINK1 expr mod: inconclusive; ClpP mod: 0.8%; TRPML1 inh: 50

How did Nn1c(SCC(=O)Nc2ccc(F)cc2)nnc1C1CCCCC1 do in these assays?
Menin-MLL FL inh: -0.8; Sfp PPTase inh: 13%; TRPV1 potentiator: 1; TRPML1 ag: -0.2; PINK1 expr mod: 1.2%; ClpP mod: 0.8%; TRPML1 inh: 33

Results for O=C(NCc1ccco1)c1ccc(Br)s1 ?
Menin-MLL FL inh: -1.1; Sfp PPTase inh: -3%; TRPV1 potentiator: -2; TRPML1 ag: -0.9; PINK1 expr mod: 6.7%[38.3 µM]; ClpP mod: 0.0%; TRPML1 inh: -10

Results for CC(=O)NS(=O)(=O)c1ccc(NC(=O)c2ccccc2F)cc1 ?
Menin-MLL FL inh: -1.8; Sfp PPTase inh: 13%; TRPV1 potentiator: 5; TRPML1 ag: 0.0; PINK1 expr mod: 5.7%[38.3 µM]; ClpP mod: 0.6%; TRPML1 inh: 1

How did COc1cccc(CNC(=O)C2CCC(CNc3c(N4CCC(C)CC4)c(=O)c3=O)CC2)c1 (configuration not stated) do in these assays?
Menin-MLL FL inh: 0.9; Sfp PPTase inh: 17%; TRPV1 potentiator: 6; TRPML1 ag: 0.3; PINK1 expr mod: 1.0%; TRPML1 inh: 20

How did O=C(N/N=C(\Cc1ncc[nH]1)c1ccccc1)c1ccccc1 do in these assays?
Menin-MLL FL inh: 2.4; Sfp PPTase inh: 19%; TRPV1 potentiator: -11

How did Cc1nn(CC(=O)NCc2ccc(OC(C)C)cc2)c(=O)c2c(C)n(-c3ccc(Cl)cc3)nc12 do in these assays?
TRPML1 ag: 1.8; PINK1 expr mod: 0.3%; ClpP mod: 0.6%; TRPML1 inh: -6

Results for COC(=O)c1ccc(/C=N/Nc2nc3ccccc3[nH]2)cc1 ?
Menin-MLL FL inh: -8.3; Sfp PPTase inh: -3%; TRPV1 potentiator: 4; TRPML1 ag: 0.7; PINK1 expr mod: 3.4%; TRPML1 inh: 7

What do the screens show for `CSc1ccc(CN2CCC(n3nccc3NC(=O)C3CCOC3)CC2)cc1` (configuration not stated)?
Sfp PPTase inh: 16%; TRPV1 potentiator: 7; TRPML1 ag: -0.3; PINK1 expr mod: 2.8%; ClpP mod: 2.2%; TRPML1 inh: 10

Results for O=Nc1c2cc(-c3ccccc3)[nH]nc-2c2ccccc12 ?
Menin-MLL FL inh: 7.0; Sfp PPTase inh: 3%; TRPV1 potentiator: 18; TRPML1 ag: 1.1; PINK1 expr mod: -1.1%; ClpP mod: 1.1%; TRPML1 inh: -4

What do the screens show for `O=C(CC1SC(=Nc2ccc(OC(F)F)cc2)N(CCN2CCOCC2)C1=O)Nc1ccccc1` (configuration not stated)?
Menin-MLL FL inh: 2.9; Sfp PPTase inh: -18%; TRPV1 potentiator: -13; TRPML1 ag: 1.1; PINK1 expr mod: 1.8%; ClpP mod: -1.1%; TRPML1 inh: 0

Results for CN(/N=C/c1cccnc1)c1cnn(-c2ccc(F)c(Cl)c2)c(=O)c1Cl ?
Menin-MLL FL inh: 0.8; Sfp PPTase inh: 17%; TRPV1 potentiator: 7; TRPML1 ag: -0.5; PINK1 expr mod: 0.7%; ClpP mod: -3.6%; TRPML1 inh: -2

How did CC(C)(C)C1CCC2(CC1)SCC(=O)N2c1ccccc1 (configuration not stated) do in these assays?
Menin-MLL FL inh: -0.9; Sfp PPTase inh: 10%; TRPML1 ag: 1.8; PINK1 expr mod: 10%[38.3 µM]; ClpP mod: -1.2%; TRPML1 inh: 21

Results for Cc1ccc(S(=O)(=O)N2CCOCC2)cc1NC(=O)COC(=O)COc1ccccc1[N+](=O)[O-] ?
TRPML1 ag: 1.1; PINK1 expr mod: -3.5%; TRPML1 inh: -5

How did COc1ccc(C(=O)Nc2ccccc2C(=O)Nc2ccc(C(=O)O)cc2)cc1 do in these assays?
Menin-MLL FL inh: 1.5; Sfp PPTase inh: 8%; TRPV1 potentiator: 4; TRPML1 ag: -0.1; PINK1 expr mod: -0.4%; ClpP mod: -2.5%; TRPML1 inh: -4

Results for COc1ccc(C(=O)c2ccccc2)c2c(O)ccc(C(=O)c3ccccc3)c12 ?
Menin-MLL FL inh: 3.4; Sfp PPTase inh: 2%; TRPV1 potentiator: -1; TRPML1 ag: -1.5; PINK1 expr mod: -1.2%; ClpP mod: 0.7%; TRPML1 inh: 9

How did COCCNS(=O)(=O)c1ccc2c(c1)n(C)c(=O)n2C do in these assays?
Menin-MLL FL inh: -0.4; Sfp PPTase inh: 6%; TRPV1 potentiator: 19; TRPML1 ag: 0.4; PINK1 expr mod: -2.1%[38.3 µM]; ClpP mod: -0.5%; TRPML1 inh: 8
